Compound activity as filed in PubChem BioAssay.
MITF inh: blocks MITF activity; inhibition, % (no concentration beside the values); 37,000 tested, 0.28% active; AID 2240; TRPM1 promoter luciferase, luminescence, 24 h;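 active = most replicates at 85% or more, or half of them and the mean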;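 also: human melanocyte line stably carrying TRPM1 promoter luciferase reporter; 0% = vehicle wells and 100% = a positive control; the first replicate is given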
YB-1 expr inh: YB-1 expression inhibition. 30,000 tested, 0.37% active. delta delta Cp (YB-1 minus CDIP) (no concentration beside the values). U2OS, qRT-PCR YB-1 vs CDIP delta delta Cp, 16 h; hits give high values; zero = DMSO, each unit about twofold;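 active = delta delta Cp rounded down to an integer at or above 3, about 3 SD of DMSO wells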;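 also: higher means less YB-1 transcript or more CDIP transcript relative to DMSO; stock transfer was 100 nL into about 100 µL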
PD-1 reversal: reversal of PD-1 mediated T-cell inhibition. primary human CD4 T cells, PD-L1 beads, CellTiter-Glo 96 h. activation, % (test concentration not listed). 29,000 tested, under 10 active;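 active = replicate mean of 50% or more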;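 also: 0% = median vehicle wells and 100% = positive control; 100 nL library stock added to about 50 µL; numbers are from one replicate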
Hedgehog inh: Sonic Hedgehog pathway inhibition | Shh-LIGHT2 Gli-luciferase reporter, 30 h | inhibition, % (no concentration beside the values) | 22,000 tested, 2.1% active;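 active = replicate mean of 65% or more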;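 also: pathway switched on by Shh-conditioned medium diluted 1 in 25 in low serum; 100 nL library stock added to about 40 µL; 0% = median of neutral wells and 100% = positive control level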
* hit, by the source's call; · = not tested or not shown. These rows are one share of the data; rates above refer to the full screens.

Results follow in this order: MITF inh, YB-1 expr inh, PD-1 reversal, Hedgehog inh
- C[C@H]1CN([C@@H](C)CO)C(=O)c2cc(NC(=O)CCCCCC(=O)Nc3ccccc3N)ccc2O[C@@H]1CN(C)C(=O)Nc1ccc(F)cc1
→ -16, 0.48, -0.1, ·
- OC1COC(OCC2OC(OCc3ccccc3)C(O)C(O)C2O)C(O)C1O (stereo not drawn)
→ 5, -0.0078, 4.0, -12
- CN(C)CCn1nnnc1SCC1=C(C(=O)O)N2C(=O)[C@@H](NC(=O)Cc3csc(N)n3)[C@H]2SC1
→ 6, -0.049, ·, -55
- C=C1CCC2(C(=O)O)CCC3(C)C(=CCC4C5(C)C[C@@H](O)[C@H](O)C(C)(CO)C5CCC43C)C2C1C (stereo partly drawn)
→ ·, 0.28, ·, 12
- C[C@H]1CN([C@@H](C)CO)C(=O)c2cccc(NS(=O)(=O)c3ccc(Cl)cc3)c2O[C@H]1CN(C)Cc1ccc(Cl)c(Cl)c1
→ 16, -0.24, -0.5, 13
- Cc1noc(C)c1NC(=O)N(C)C[C@@H]1Oc2ccc(NS(=O)(=O)c3ccc(F)cc3)cc2CC(=O)N([C@H](C)CO)C[C@@H]1C
→ -3, 0.2, 1.7, -50
- COc1ccc(C(=O)NCc2ccc(C#N)cc2)cc1OC
→ 6, 0.96, 0.7, -31
- c1ccc(CCNc2ncnc3scc(C4COc5ccccc5O4)c23)cc1 (stereo not drawn)
→ 32, ·, -2.1, ·
- C[C@H](CO)N1C[C@H](C)[C@H](CN(C)C(=O)Nc2ccc3c(c2)OCO3)Oc2ccc(NS(=O)(=O)c3cn(C)cn3)cc2CC1=O
→ 1, 0.36, 0.0, -9
- C[C@@H]1CN([C@@H](C)CO)C(=O)c2cc(NC(=O)C3CC3)ccc2O[C@H]1CN(C)C(=O)Nc1ccc(C(F)(F)F)cc1
→ 2, -0.31, -3.1, 39
- CCN(CC)CCOC(=O)c1cc(Cl)c(N)cc1OC
→ 4, 0.072, -0.6, -13
- Cc1noc(C)c1NC(=O)Nc1cccc2c1O[C@@H](CN(C)Cc1ccc(C(=O)Nc3ccccc3N)cc1)[C@@H](C)CN([C@H](C)CO)C2=O
→ 4, -0.88, 2.2, ·
- CNC[C@@H]1OCCCC[C@@H](C)Oc2ccc(NC(=O)Nc3ccc4c(c3)OCO4)cc2C(=O)N([C@H](C)CO)C[C@@H]1C
→ 4, -0.13, 1.3, ·
- CCn1c(SCC(=O)c2ccc(OC)cc2)nnc1-c1cccs1
→ 2, ·, -2.4, ·
- COc1ccc(-c2cc3ccccc3oc2=O)cc1NC(=O)COc1ccc(Br)cc1
→ -18, ·, 1.4, ·
- C[C@H](CO)N1C[C@H](C)[C@@H](CN(C)C)Oc2ccc(NS(=O)(=O)c3ccc(Cl)cc3)cc2C1=O
→ -5, -0.18, ·, -4
- CNc1cc(=O)n(-c2ccccc2)c(=O)n1-c1ccccc1
→ 0, -0.1, 1.2, -10
- C[C@H]1CN([C@@H](C)CO)C(=O)c2cc(NS(=O)(=O)c3ccc(F)cc3)ccc2O[C@@H]1CN(C)C(=O)Nc1ccc(C(F)(F)F)cc1
→ -4, -0.038, -1.5, ·
- CCOC(=O)c1c(NC(=O)CSc2ncn[nH]2)sc(C)c1C
→ 5, ·, 0.1, ·
- C[C@H](CO)N1C[C@H](C)[C@H](CN(C)Cc2ccc(C(=O)O)cc2)Oc2ccc(NS(=O)(=O)c3cn(C)cn3)cc2C1=O
→ -7, -0.097, 0.6, ·

Next section.
Results follow in this order: MITF inh, YB-1 expr inh, PD-1 reversal, Hedgehog inh
- CNC[C@H]1Oc2ccc(NC(=O)Nc3ccc(OC)cc3)cc2CC(=O)N([C@@H](C)CO)C[C@H]1C
→ -5, -0.081, ·, -22
- COc1ccc(NC(=O)N(C)C[C@H]2Oc3ccc(NC(=O)Nc4ccccc4)cc3C(=O)N([C@@H](C)CO)C[C@@H]2C)cc1
→ 8, -0.24, 0.4, -3
- C[C@H]1CN([C@@H](C)CO)C(=O)c2cccc(NC(=O)Nc3ccc4c(c3)OCO4)c2O[C@@H]1CN(C)C(=O)Nc1ccccc1
→ -18, -0.28, 2.3, -21
- CS(=O)(=O)N(CC(=O)Nc1ccc(Br)cc1)c1ccc(Cl)c(C(F)(F)F)c1
→ -10, ·, -2.9, ·
- CCc1nc2sc(C)c(C)c2c(=O)n1N
→ 12, 0.17, 4.5, -25
- Clc1ccc2c(c1)N=C(N1CCNCC1)c1ccccc1N2
→ 2, 0.26, ·, 54
- Cc1noc(C)c1S(=O)(=O)Nc1ccc2c(c1)CC(=O)N([C@H](C)CO)C[C@H](C)[C@H](CN(C)C(=O)Nc1ccc(F)cc1)O2
→ -7, 0.1, ·, 10
- Nc1sc(-c2ccccc2)c(Cc2ccccc2)c1C(=O)O
→ 7, 0.34, 0.2, 19
- C[C@@H]1CN([C@H](C)CO)C(=O)Cc2cc(NC(=O)c3ccncc3)ccc2O[C@H]1CN(C)Cc1ccc(C(=O)O)cc1
→ 1, 0.23, ·, -11
- C[C@H](CO)N1C[C@H](C)[C@H](CN(C)C(=O)Nc2ccc(C(F)(F)F)cc2)Oc2ccc(NS(C)(=O)=O)cc2C1=O
→ -14, 0.16, -0.4, ·
- CC(c1ccccc1)n1c(CCCO)nc2ccccc21 (stereo not drawn)
→ 8, ·, 0.5, ·
- CCCCn1cc(SCC(=O)O)c2ccccc21
→ -3, ·, 0.3, ·
- C[C@@H]1CN([C@H](C)CO)C(=O)Cc2cc(NS(=O)(=O)c3cccs3)ccc2O[C@@H]1CN(C)Cc1ccc2c(c1)OCO2
→ -9, -0.024, 1.5, -3
- C[C@H]1CN([C@@H](C)CO)C(=O)c2cccc(NC(=O)NC3CCCCC3)c2O[C@H]1CN(C)Cc1ccc(C(=O)O)cc1
→ -7, 0.013, 0.6, -6
- COc1ccc(Sc2ccccc2COC(C)=O)c(C(=O)O)c1
→ 2, -0.39, 3.3, -2
- C[C@H]1CN([C@@H](C)CO)C(=O)Cc2cc(NC(=O)C3CCCCC3)ccc2O[C@@H]1CN(C)C(=O)Nc1ccccc1
→ -8, 0.26, -2.0, 3
- COc1ccc(C(C)=O)c(O)c1
→ -4, 0.29, ·, 8
- Cc1ccc(-n2nnnc2SCC(=O)Nc2ccc(N3CCOCC3)c(Cl)c2)cc1C
→ -1, ·, 0.1, ·
- CCN(CC(=O)Nc1ccc(C(F)(F)F)cc1)S(=O)(=O)c1ccc(C)cc1
→ 14, ·, 0.3, ·
- C[C@H]1CN([C@@H](C)CO)C(=O)c2cc(NC(=O)NC3CCCCC3)ccc2O[C@H]1CN(C)Cc1ccc(Cl)c(Cl)c1
→ 6, 0.31, 0.4, -22

Looked up above:
Entry for `C[C@@H]1CN([C@H](C)CO)C(=O)Cc2cc(NC(=O)c3ccncc3)ccc2O[C@H]1CN(C)Cc1ccc(C(=O)O)cc1` in Hedgehog inh: -11
Entry for `C[C@H]1CN([C@@H](C)CO)C(=O)Cc2cc(NC(=O)C3CCCCC3)ccc2O[C@@H]1CN(C)C(=O)Nc1ccccc1` in Hedgehog inh: 3

Sorted by length of the SMILES (highest first): 3 of the compounds above.
Results follow in this order: MITF inh, YB-1 expr inh, PD-1 reversal, Hedgehog inh
- COc1ccc(NC(=O)N(C)C[C@H]2Oc3ccc(NC(=O)Nc4ccccc4)cc3C(=O)N([C@@H](C)CO)C[C@@H]2C)cc1
→ 8, -0.24, 0.4, -3
- CCN(CC(=O)Nc1ccc(C(F)(F)F)cc1)S(=O)(=O)c1ccc(C)cc1
→ 14, ·, 0.3, ·
- CCCCn1cc(SCC(=O)O)c2ccccc21
→ -3, ·, 0.3, ·

The list goes on:
Results follow in this order: MITF inh, YB-1 expr inh, PD-1 reversal, Hedgehog inh
- c1ccc(-c2ccc3c(n2)CCc2ccccc2-3)cc1
→ 60, -0.19, -1.0, -95
- O=C(CSc1ncccn1)Nc1ccc(Cl)cc1Cl
→ -85, ·, -0.4, ·
- C[C@H]1CN([C@@H](C)CO)C(=O)c2cccc(NC(=O)c3cnccn3)c2O[C@@H]1CN(C)S(=O)(=O)c1ccc(F)cc1
→ -24, 0.46, 1.2, -50
- Cc1noc(C)c1NC(=O)N(C)C[C@@H]1Oc2c(NC(=O)Nc3ccc(F)cc3)cccc2C(=O)N([C@H](C)CO)C[C@@H]1C
→ 1, -0.15, -0.3, -7
- Cc1cc(C(=O)Nc2cccc3c2O[C@@H](CN(C)C(=O)NC2CCCCC2)[C@H](C)CN([C@@H](C)CO)C3=O)n(C)n1
→ 2, 0.26, 1.5, -14
- CC(C)c1nnc(N2C(=O)c3oc4ccccc4c(=O)c3C2c2ccco2)s1 (stereo not drawn)
→ 5, ·, -3.2, ·
- NC(=O)c1ccc[n+](CC(=O)c2ccccc2)c1
→ -1, 1.1, 2.3, 1
- Cc1noc(C)c1S(=O)(=O)N(C)C[C@@H]1Oc2ccc(NS(=O)(=O)c3ccc(Cl)cc3)cc2C(=O)N([C@H](C)CO)C[C@@H]1C
→ -2, 0.39, -1.3, 9
- C[C@@H]1CN([C@@H](C)CO)C(=O)c2cc(NS(=O)(=O)c3ccccc3)ccc2O[C@H]1CN(C)S(=O)(=O)c1ccc(Cl)cc1
→ 0, 0.063, -1.0, 52
- COc1ccc(S(=O)(=O)N(C)C[C@@H]2Oc3ccc(N(C)C)cc3C(=O)N([C@H](C)CO)C[C@H]2C)cc1
→ 8, -0.17, -0.6, -30
- C[C@@H]1CN([C@@H](C)CO)C(=O)c2cccc(NC(=O)Nc3ccc4c(c3)OCO4)c2O[C@@H]1CN(C)C
→ -14, 0.54, 2.2, -51
- C[C@@H]1CCCCO[C@H](CN(C)C(=O)C2CCCCC2)[C@@H](C)CN([C@H](C)CO)C(=O)c2cc(NS(=O)(=O)c3ccc(Cl)cc3)ccc2O1
→ 4, 0.29, ·, -50
- COc1ccc(CN2C(=O)C(O)(CC(=O)c3ccc(Cl)cc3)c3ccccc32)cc1OC (stereo not drawn)
→ 3, ·, 0.5, ·
- C[C@H]1CN([C@@H](C)CO)C(=O)Cc2cc(NC(=O)Cc3cn(C)c4ccccc34)ccc2O[C@H]1CN(C)S(=O)(=O)c1ccc(Cl)cc1
→ 10, -0.05, ·, -10
- C[C@@H]1CN([C@H](C)CO)C(=O)c2cc(NS(=O)(=O)c3ccccc3)ccc2O[C@@H]1CN(C)C
→ 0, -0.055, 0.4, ·
- CN(CC(=O)Nc1ccc(F)c(Cl)c1)S(=O)(=O)c1ccc2ccccc2c1
→ 17, ·, -0.6, ·
- O=C(c1ccccc1)c1ccc(COC(=O)c2ccccc2NC(=O)c2ccco2)cc1
→ -24, ·, 4.3, ·
- O=C1c2ccccc2-c2c(NCCc3ccccc3)c(=O)[nH]c3cccc1c23
→ 31, -0.48, -3.4, 45
- C[C@H](CO)N1C[C@H](C)[C@@H](CN(C)S(=O)(=O)c2cn(C)cn2)Oc2c(NC(=O)Nc3ccc(C(F)(F)F)cc3)cccc2C1=O
→ -13, -0.6, 1.9, 45
- C[C@@H]1O[C@@H](O[C@H]2[C@H](O)[C@@H](O[C@@H]3O[C@H](CO)[C@@H](O)[C@H](O)[C@H]3O)[C@H](O[C@H]3CC[C@@]4(C)C(=CC[C@@H]5C4CC[C@@]4(C)C5C[C@@H]5O[C@]6(CC[C@@](C)(CO)O6)[C@@H](C)[C@@H]54)C3)O[C@@H]2CO)[C@H](O)[C@H](O)[C@H]1O (stereo partly drawn)
→ -1, -0.53, 0.9, -1

More structures
Results follow in this order: MITF inh, YB-1 expr inh, PD-1 reversal, Hedgehog inh
- CCC1C(=O)O[C@]23C=C[C@@H]4C(C(=O)O)=CO[C@H](OC12)[C@@H]43 (stereo partly drawn)
→ -2, 0.098, -0.3, -16
- C[C@H](CO)N1C[C@H](C)[C@@H](CN(C)C(=O)Nc2ccc3c(c2)OCO3)Oc2ccc(NC(=O)C3CC3)cc2C1=O
→ -3, -0.22, 0.6, 8
- CC(C)NC(=O)Nc1cccc2c1O[C@H](CN(C)C(=O)Nc1ccccc1)[C@H](C)CN([C@H](C)CO)C2=O
→ -4, -0.32, 2.4, 6
- CCCCn1c(O)c(C#N)c(C)cc1=O
→ -17, -0.24, 1.3, 0
- CC1(C)CC[C@]2(C(=O)O[C@@H]3O[C@H](CO)[C@@H](O)[C@H](O)[C@H]3O)CC[C@]3(C)C(=CCC4[C@@]5(C)CC[C@@H](O[C@@H]6O[C@H](C(=O)O)[C@@H](O[C@@H]7OC[C@@H](O)[C@H](O)[C@H]7O)[C@H](O[C@@H]7OC[C@](O)(CO)[C@H]7O)[C@H]6O)C(C)(C)C5CC[C@]43C)C2C1 (stereo partly drawn)
→ 6, -0.044, 1.4, 1
- O=C(Nc1ccc(NS(=O)(=O)c2cccc(C(=O)Nc3ccc(Br)cc3)c2)cc1)c1ccccc1
→ 9, ·, -0.7, ·
- CC(=O)c1c(C)nn2c3ccccc3n(CCN3CCOCC3)c12
→ 2, ·, -0.9, ·
- Cc1ccc(NS(=O)(=O)c2cccc(C(=O)Nc3ccccc3C(=O)O)c2)cc1C
→ 18, ·, 1.7, ·
- COc1ccc(S(=O)(=O)N(C)C[C@H]2Oc3ccc(NC(=O)Nc4cccc5ccccc45)cc3CC(=O)N([C@@H](C)CO)C[C@@H]2C)cc1
→ -4, -0.021, 1.4, -39
- O=C(O)CCC(=O)OCc1ccccc1
→ 19, -0.094, -0.3, -24
- C[C@@H]1CCCCO[C@@H](CN(C)Cc2ccncc2)[C@@H](C)CN([C@H](C)CO)C(=O)c2cc(NS(=O)(=O)c3ccc(Cl)cc3)ccc2O1
→ -15, -0.32, -0.7, ·
